YB-1 expression – YB-1 expression inhibition; delta delta Cp (YB-1 minus CDIP) (test concentration not listed); AID 434959; 0.37% of 30,000 active; U2OS, qRT-PCR YB-1 vs CDIP delta delta Cp, 16 h; active compounds read high; zero = DMSO, each unit about twofold;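 active = delta delta Cp rounded down to an integer at or above 3, about 3 SD of DMSO wells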;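 also: higher means less YB-1 transcript or more CDIP transcript relative to DMSO; stock transfer was 100 nL into about 100 µL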
MITF inh – inhibitors of MITF. TRPM1 promoter luciferase, luminescence, 24 h. inhibition, % (test concentration not listed). 0.28% of 37,000 active. AID 2240;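 active = most replicates at 85% or more, or half of them and the mean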;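 also: human melanocyte line stably carrying TRPM1 promoter luciferase reporter; 0% = vehicle wells and 100% = a positive control; the first replicate is given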
Shh pathway inh – Sonic Hedgehog pathway inhibition. Shh-LIGHT2 Gli-luciferase reporter, 30 h. inhibition, % (test concentration not listed). 2.1% of 22,000 active;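 active = replicate mean of 65% or more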;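 also: pathway switched on by Shh-conditioned medium diluted 1 in 25 in low serum; 100 nL library stock added to about 40 µL; 0% = median of neutral wells and 100% = positive control level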
PD-1 reversal – activators reversing PD-1 mediated T-cell inhibition. primary human CD4 T cells, PD-L1 beads, CellTiter-Glo 96 h. activation, % (test concentration not listed). 29,000 tested, under 10 active;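 active = replicate mean of 50% or more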;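 also: 0% = median vehicle wells and 100% = positive control; 100 nL library stock added to about 50 µL; numbers are from one replicate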
Active calls of the source: *; · = not tested or not shown; & = joins results of further samples.

structure	YB-1 expression	MITF inh	Shh pathway inh	PD-1 reversal
Cc1noc(C)c1NC(=O)N(C)C[C@@H]1Oc2ccc(NC(=O)Nc3ccc(C(F)(F)F)cc3)cc2CC(=O)N([C@H](C)CO)C[C@@H]1C	-0.253	-17.4	63.2	-3.7
OCCNC(=S)Nc1ccccc1	-0.44	-3.5	·	1.7
CCSc1ncc(Cl)c(C(=O)Nc2sc3c(c2C(=O)NCC2CCCO2)CCCC3)n1 (stereo not given)	·	-21.5	·	-1.3
NNC(=O)CNC(=O)c1ccccc1	-0.294	3.9	-32.8	2.8
Cc1ccc(S(=O)(=O)N(C)C[C@@H]2Oc3ccc(NC(=O)Nc4ccc(C(F)(F)F)cc4)cc3C(=O)N([C@@H](C)CO)C[C@@H]2C)cc1	0.0297	15.0	·	-0.9
CNC[C@H]1Oc2ccc(NC(=O)Cc3ccccc3)cc2C(=O)N([C@@H](C)CO)C[C@@H]1C	-0.773	-11.6	·	1.4
S=C(Nc1ccc(Cl)cc1Cl)NC(Cn1ccnc1)c1ccccc1 (stereo not given)	0.00783	-15.2	12.3	-1.4
CC(=O)NCCc1nc2cc(NC(=O)c3ccco3)ccc2n1C	·	-44.6	·	2.6
CN(CC(=O)Nc1cccc(I)c1)S(=O)(=O)c1ccc(Cl)cc1	·	6.6	·	1.0
CCOC(=O)COc1ccc(C23CC4CC(CC(C4)C2)C3)cc1	-0.806	-34.4	·	0.5
COc1cc(CC2COC(c3ccc(O)c(OC)c3)C2COC2OC(CO)C(O)C(O)C2O)ccc1O (stereo not given)	-0.288	·	24.0	·
COc1ccccc1-n1nnnc1SCC(=O)Nc1ccccc1F	·	5.3	·	-0.8
CNC[C@@H]1Oc2c(NC(=O)Nc3ccc(F)cc3)cccc2C(=O)N([C@H](C)CO)C[C@@H]1C	-0.478	5.4	·	·
COC(=O)COc1ccc(NC(=O)c2ccc(OC)c([N+](=O)[O-])c2)cc1	·	-0.1	·	-6.9
C[C@@H]1CN([C@H](C)CO)C(=O)Cc2cc(NC(=O)Nc3cccc4ccccc34)ccc2O[C@H]1CN(C)Cc1ccc(Oc2ccccc2)cc1	-0.186	5.6	-59.5	-0.5

Other results:
structure	YB-1 expression	MITF inh	Shh pathway inh	PD-1 reversal
CNC[C@H]1Oc2ccc(NC(=O)CCN3CCOCC3)cc2CC(=O)N([C@@H](C)CO)C[C@H]1C	-0.0966	0.9	-11.7	0.2
Cc1cc(NC(=O)c2nn3cccnc3c2Cl)no1	·	13.8	·	1.8
Cc1ccc(S(=O)(=O)Nc2cccc3c2O[C@@H](CN(C)C(=O)Nc2ccc(F)cc2)[C@H](C)CN([C@H](C)CO)C3=O)cc1	-0.666	-12.2	-21.1	·
C[C@H]1CN([C@@H](C)CO)C(=O)Cc2cc(NC(=O)Cc3cn(C)c4ccccc34)ccc2O[C@H]1CN(C)S(=O)(=O)c1cccs1	0.286	20.2	7.4	1.0
Cc1noc(C)c1NC(=O)Nc1cccc2c1O[C@H](CN(C)S(C)(=O)=O)[C@H](C)CN([C@H](C)CO)C2=O	-0.238	4.5	-13.4	0.9
O=C(CSc1n[nH]c(-c2ccccc2)n1)Nc1ccccc1Cl	·	-20.8	·	-4.3
CC(C)NC(=O)N(C)C[C@H]1Oc2ccc(N(C)C)cc2CC(=O)N([C@H](C)CO)C[C@H]1C	-0.0394	-4.2	-3.4	·
Cc1c(Br)sc2sc(-c3ccnc(SCC(=O)NC(C)C)n3)c(C)c12	-0.133	18.8	-15.7	0.2
COc1ccc(S(=O)(=O)N(C)C[C@@H]2Oc3ccc(NC(=O)c4ccncc4)cc3C(=O)N([C@H](C)CO)C[C@H]2C)cc1	0.215	-0.6	-7.7	-0.2
Cn1c(SCC(=O)Nc2cccc3ccccc23)nnc1-c1ccc(F)cc1	·	2.5	·	0.4
C[C@H]1CN([C@@H](C)CO)C(=O)Cc2cc(NC(=O)C3CCCCC3)ccc2O[C@H]1CN(C)CC1CCCCC1	-0.457	-10.6	26.7	-1.1
C[C@H]1CN([C@@H](C)CO)C(=O)Cc2cc(NC(=O)Nc3ccc(C(F)(F)F)cc3)ccc2O[C@H]1CN(C)C(=O)Nc1cccc2ccccc12	0.15	-1.4	·	-0.5
CC(C)(C)c1ccc(C(=O)Nc2ccc(NC(=O)c3ccccc3F)cc2)cc1	-0.0392	9.5	15.3	-0.4
Cc1noc(C)c1NC(=O)N(C)C[C@H]1OCCCC[C@@H](C)Oc2ccc(NC(=O)NC3CCCCC3)cc2C(=O)N([C@H](C)CO)C[C@@H]1C	0.31	-17.8	-4.9	-0.3
O=c1cc(CSc2cccc3cccnc23)c2ccc(O)cc2o1	-0.0837	-17.7	7.0	-5.7

Other results
structure	YB-1 expression	MITF inh	Shh pathway inh	PD-1 reversal
Cc1noc(C)c1S(=O)(=O)Nc1ccc2c(c1)C(=O)N([C@@H](C)CO)C[C@@H](C)[C@@H](CN(C)C(=O)Nc1ccc(F)cc1)O2	0.289	3.5	·	-1.6
C[C@@H]1CN([C@H](C)CO)C(=O)c2cccc(NS(=O)(=O)c3ccccc3)c2O[C@@H]1CN(C)C	-0.191	-7.1	-4.8	·
COc1ccc(NC(=O)Nc2cccc3c2O[C@@H](CN(C)S(=O)(=O)c2ccc(F)cc2)[C@@H](C)CN([C@H](C)CO)C3=O)cc1	0.386	-7.2	-31.4	0.8
Cc1cc(C(=O)Nc2cccc3c2O[C@@H](CN(C)C)[C@H](C)CN([C@@H](C)CO)C3=O)n(C)n1	0.358	-9.8	-23.3	0.0
CC(C)NC(=O)Nc1ccc2c(c1)CC(=O)N([C@@H](C)CO)C[C@H](C)[C@H](CN(C)C(=O)NC1CCCCC1)O2	0.148	-11.0	10.7	0.6
COc1ccc(OC)c(S(=O)(=O)N2CCC(C(=O)Nc3ccc(Cl)c(C(F)(F)F)c3)CC2)c1	·	74.8	·	-3.2
C[C@H](CO)N1C[C@H](C)[C@H](CN(C)S(=O)(=O)c2ccc(Cl)cc2)Oc2ccc(NS(=O)(=O)c3cn(C)cn3)cc2CC1=O	-0.394	0.4	6.8	0.0
C=C(C(=O)O[C@H]1C/C=C(/C)C[C@H](O)[C@H]2[C@H](C)C(=O)O[C@@H]2/C=C\1C)[C@@H]1CCC(=C)[C@@H]2C[C@H](O[C@@H]3O[C@H](CO[C@H]4OC[C@](O)(CO)[C@H]4O)[C@@H](O)[C@H](O)[C@H]3O)C(=C)[C@@H]2C1	-0.294	-0.7	-24.5	1.4
C[C@@H]1CN([C@H](C)CO)C(=O)c2cccc(NC(=O)C3CC3)c2O[C@@H]1CN(C)Cc1ccc(Oc2ccccc2)cc1	0.111	5.7	17.1	·
Cc1sc2nc(SCC(=O)O)n(-c3ccc(Cl)c(Cl)c3)c(=O)c2c1C	·	6.2	·	-2.2
O=C(CSc1nnc(-c2ccncc2)n1-c1ccccc1)c1c[nH]c2ccccc12	·	-2.4	·	2.5
Cc1ccc(N(C(C)C(=O)Nc2cccc(C)c2C)S(C)(=O)=O)cc1 (stereo not given)	·	4.1	·	0.7
Cc1noc(C)c1NC(=O)Nc1ccc2c(c1)C(=O)N([C@@H](C)CO)C[C@H](C)[C@H](CN(C)S(=O)(=O)c1ccccc1)O2	-0.0571	5.1	-19.4	0.0
C[C@@H]1CN([C@H](C)CO)C(=O)Cc2cc(NC(=O)NC3CCCCC3)ccc2O[C@@H]1CN(C)S(=O)(=O)c1ccc(Cl)cc1	-0.231	20.4	-19.0	-1.3
Cc1noc(C)c1NC(=O)Nc1cccc2c1O[C@@H](CN(C)C(=O)Nc1ccccc1)[C@@H](C)CN([C@H](C)CO)C2=O	-0.0504	-8.8	-51.0	·

(more compounds)
structure	YB-1 expression	MITF inh	Shh pathway inh	PD-1 reversal
COC(=O)c1ccc(NC(=O)CN(c2ccc(I)cc2)S(C)(=O)=O)cc1	·	-102.3	·	1.0
COc1cccc(NC(=O)CSc2nnc(-c3ccncc3)n2-c2ccc(C)cc2)c1	·	-8.0	·	-2.2
CS(=O)(=O)N(CC(=O)Nc1ccccc1C(=O)O)c1ccc(F)cc1	·	-13.7	·	1.3
O=C(CCc1ccccc1)Nc1ccccc1C(=O)N1CCOCC1	·	-22.0	·	3.0
C[C@H]1CN([C@@H](C)CO)C(=O)c2cccc(NS(=O)(=O)c3cn(C)cn3)c2O[C@@H]1CN(C)Cc1ccc(C(F)(F)F)cc1	0.0116	-9.0	-22.1	·
Cc1cccc(NC(=O)CSc2n[nH]c(-c3ccccc3)n2)c1	·	-2.3	·	0.9
COc1c(OC)c2occc2c2oc(=O)ccc12	0.0847	0.5	-60.6	·
c1cnc(N2CCN(Cc3ccc4c(c3)OCO4)CC2)nc1	0.255&-0.394	-2.5&-15.1	-26.4&1.2	·
CN1CCc2nc(SCC(=O)Nc3ccc(C(C)(C)C)cc3)c(C#N)cc2C1	·	15.7	·	-8.0
C[C@H]1CN([C@@H](C)CO)C(=O)c2cccc(NC(=O)Nc3ccccc3)c2O[C@@H]1CN(C)Cc1ccc(C(F)(F)F)cc1	-0.289	41.3	4.9	1.6
COc1ccc(S(=O)(=O)Nc2ccc3c(c2)C(=O)N([C@@H](C)CO)C[C@H](C)[C@@H](CN(C)CC2CC2)O3)cc1	-1.43	1.1	-44.1	1.9
C[C@H]1CN([C@@H](C)CO)C(=O)c2cccc(NC(=O)c3cnccn3)c2O[C@@H]1CN(C)C(=O)Nc1cccc2ccccc12	-0.161	-5.8	17.9	·
COc1ccc(S(=O)(=O)Nc2ccc3c(c2)C(=O)N([C@H](C)CO)C[C@H](C)[C@H](CN(C)S(=O)(=O)c2cn(C)cn2)O3)cc1	-0.376	8.1	-16.7	-0.4
O=C(CSc1nc(-c2ccccc2)cc(-c2ccccc2)n1)Nc1cccc([N+](=O)[O-])c1	·	4.6	·	0.3
COc1c2c(cc3oc(=O)ccc13)OC(C)(C)C=C2	0.108	-85.3	-36.6	-2.0

The list goes on.
structure	YB-1 expression	MITF inh	Shh pathway inh	PD-1 reversal
O=C1CC(Sc2nnc(-c3ccccc3O)o2)C(=O)N1c1ccccc1 (stereo not given)	·	-0.9	·	-14.1
COc1ccc(NC(=O)Nc2ccc3c(c2)CC(=O)N([C@@H](C)CO)C[C@H](C)[C@H](CN(C)S(=O)(=O)c2ccc(C)cc2)O3)cc1	-0.823	42.4	-23.1	·
CCSC1=N/C(=C\c2cccc(F)c2)C(=O)S1	-0.348	8.4	4.2	3.4
C[C@H](CO)N1C[C@H](C)[C@H](CN(C)S(=O)(=O)c2ccccc2)Oc2ccc(NC(=O)C3CC3)cc2C1=O	0.00877	-3.0	·	0.1
CCC(C)/C=C/C1=CC2=C(Cl)C(=O)C3(C)OC(=O)C(C(=O)C(C)C(C)O)C3C2=CO1 (stereo not given)	0.0239	12.4	-12.4	-1.1
C[C@H](CO)N1C[C@H](C)[C@@H](CN(C)Cc2ccc(C(F)(F)F)cc2)Oc2ccc(NS(=O)(=O)c3ccc(Cl)cc3)cc2C1=O	0.407	30.8	12.6	-5.9
Cc1ccc(S(=O)(=O)CCN2CCN(c3ccccc3)CC2)cc1	-0.329	0.8	-0.6	0.7
C[C@@H]1CN([C@@H](C)CO)C(=O)c2cc(N(C)C)ccc2O[C@H]1CN(C)C(=O)NC1CCCCC1	0.369	2.8	-44.6	·
C[C@@H]1CN([C@@H](C)CO)C(=O)c2cccc(NS(=O)(=O)c3ccc(F)cc3)c2O[C@@H]1CN(C)S(=O)(=O)c1cccs1	0.097	-1.1	-8.8	-2.9
CNC[C@H]1Oc2ccc(NS(=O)(=O)c3ccc(C)cc3)cc2C(=O)N([C@H](C)CO)C[C@H]1C	0.229	0.9	-14.8	·
C[C@H]1CN([C@@H](C)CO)C(=O)c2cccc(NC(=O)Nc3ccc(C(F)(F)F)cc3)c2O[C@@H]1CN(C)Cc1ccc2c(c1)OCO2	-0.035	18.9	-9.2	-4.5
C[C@@H]1CN([C@H](C)CO)C(=O)Cc2cc(NC(=O)Nc3ccc(F)cc3)ccc2O[C@@H]1CN(C)CC1CCCCC1	0.282	-9.5	·	0.8
C[C@H](CO)N1C[C@H](C)[C@H](CN(C)CC2CCCCC2)Oc2ccc(NS(=O)(=O)c3ccccc3)cc2CC1=O	-0.578	-11.0	·	·

From PubChem BioAssay

This is a subset (hit frequency here may not be typical).
